Screening results from PubChem.
HNF4A DNA FP = change in binding of human HNF4 alpha to DNA; AID 1224865; HNF4a-FITC DNA binding, fluorescence polarization, 1 h; activity change, % at 10 µM; 360,000 tested, 0.3% active; in the data active = activity change above about 30%, passing the limit was not always enough;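 note: controls were the assay level and a saturating level of protein; the project sought stronger binding though the title names inhibitors; some compounds called inactive have numbers as strong as hits; positive values seem to mean higher polarization but the record does not say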
Target sequence (P41235 whole entry, looked up): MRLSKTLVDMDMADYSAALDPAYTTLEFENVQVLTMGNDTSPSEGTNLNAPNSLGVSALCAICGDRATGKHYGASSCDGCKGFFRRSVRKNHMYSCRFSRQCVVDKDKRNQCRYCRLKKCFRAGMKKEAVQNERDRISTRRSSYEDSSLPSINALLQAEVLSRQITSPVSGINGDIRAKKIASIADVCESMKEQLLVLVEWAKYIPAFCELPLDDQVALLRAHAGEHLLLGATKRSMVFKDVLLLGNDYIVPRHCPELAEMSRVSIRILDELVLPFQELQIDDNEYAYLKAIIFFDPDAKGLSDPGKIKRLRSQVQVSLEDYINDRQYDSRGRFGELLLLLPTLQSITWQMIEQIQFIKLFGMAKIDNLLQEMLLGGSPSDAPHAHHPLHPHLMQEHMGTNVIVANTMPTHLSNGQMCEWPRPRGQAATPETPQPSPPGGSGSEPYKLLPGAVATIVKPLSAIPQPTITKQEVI
UCH37 inh = blocks the human deubiquitinase UCH37; inhibition, % (test concentration not listed); Q9Y5K5; 330,000 tested, 0.33% active; purified proteasome/UCH37, Ub-AMC cleavage fluorescence;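 active = mean of two replicates above 20%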;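 note: 0% = compound-free wells with enzyme and 100% = wells lacking proteasome; stock transfer was 100 nL into about 20 µL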
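System: Proteasome-associated human UCH37 deubiquitinase; Input: 0.15 nM proteasome in added enzyme buffer; Also added: Ub-AMC substrate from 1 µM stock; Incubation: 30 min compound-proteasome preincubation then 25 min substrate reaction, room temperature; Detection: fluorescence, ex 355 nm, em 460 nm; Read-out: % inhibition of Ub-AMC cleavage fluorescence; Benchmarks: no-proteasome and no-compound wells.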
E coli growth = inhibitors of Escherichia coli growth; OD600, 23 h; stronger effect = lower value; OD600 absorbance (no concentration beside the values); 330,000 tested, 0.21% active; AID 1053175;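 active = OD600 absorbance below the run mean of sample wells minus 3.6 SD, in any replicate, cut at about 0.56 in these data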;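 note: stock transfer was 300 nL into about 60 µL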
ALR inh = human ALR oxidase inhibition via reduced H2O2 | 290,000 tested, 3.8% active | AID 485317 | P55789 | purified ALR, DTT oxidation, H2O2 HRP-luminol luminescence | inhibition, % (no concentration beside the values);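 active = mean and each replicate at 75% or more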;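 note: stock transfer was 7.5 nL into about 7.5 µL; 0% = neutral wells and 100% = wells with inactivated enzyme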
Target sequence (P55789 whole entry, looked up): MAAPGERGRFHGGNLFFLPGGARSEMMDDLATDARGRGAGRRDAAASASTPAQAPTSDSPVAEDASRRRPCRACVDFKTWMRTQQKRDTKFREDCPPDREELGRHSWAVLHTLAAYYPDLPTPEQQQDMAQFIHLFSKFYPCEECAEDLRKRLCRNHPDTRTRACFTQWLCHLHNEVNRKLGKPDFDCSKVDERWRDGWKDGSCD
FGF22 binding = FGF22 (human) thermal shift binding | AID 651658 | calls only at 9.99 µM | 340,000 tested, 1.5% active | recombinant FGF22 thermal shift, SYPRO orange fluorescence; percent of sucrose octasulfate shift, DMSO zero | Q9HCT0;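 active = melting point raised past a set limit in the mean and every replicate; three in four hits are not shown here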
LANA-H2B inh = blocks KSHV LANA binding to histone H2A/H2B | Q9QR71 | cell-free LANA-H2A/H2B peptide, fluorescence polarization | inhibition, % (concentration not given with the values) | 320,000 tested, 0.6% active; in the data active = inhibition mostly above about 10%, no sharp cut-off; inactive = mostly below about 6.7%;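 note: stock transfer was 7.5 nL into about 10 µL; 0% = median of vehicle wells and 100% = median of positive control wells; one replicate is shown; the record names a cut of 25% in any replicate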
B2AR ag = human beta-2 adrenergic receptor agonism by FAP; P07550; Am2.2-beta2AR cells, FAP receptor internalization, flow cytometry; reference of the scale not given here; response, % (no concentration beside the values); 340,000 tested, 0.43% active; AID 504454;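 active = response above a set limit, near 3 SD of response in nonfluorescent compounds, cut at about 42% in these data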;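 note: stock transfer was 100 nL into about 11 µL; a reference agonist was the positive control; negative values mostly stem from fluorescent compounds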
Target sequence (P07550 whole entry, looked up): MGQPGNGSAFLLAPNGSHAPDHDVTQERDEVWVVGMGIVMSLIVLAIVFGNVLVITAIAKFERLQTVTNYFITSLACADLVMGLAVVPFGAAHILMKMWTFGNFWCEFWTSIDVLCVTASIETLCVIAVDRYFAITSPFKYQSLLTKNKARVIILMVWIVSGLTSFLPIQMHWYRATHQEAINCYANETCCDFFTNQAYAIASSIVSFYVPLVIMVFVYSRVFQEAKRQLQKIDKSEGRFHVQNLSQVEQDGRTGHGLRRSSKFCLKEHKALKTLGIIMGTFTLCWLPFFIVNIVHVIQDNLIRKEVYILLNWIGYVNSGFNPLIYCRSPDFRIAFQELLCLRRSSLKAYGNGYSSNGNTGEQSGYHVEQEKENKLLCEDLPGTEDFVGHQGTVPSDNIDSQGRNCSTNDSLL
Numbers without * were called inactive; i = inactive; x = no result given. The list is partial; count on the stated rates, not on these rows.

SMILES	HNF4A DNA FP	UCH37 inh	E coli growth	ALR inh	FGF22 binding	LANA-H2B inh	B2AR ag
CCOc1ccc(N(CC(=O)OC)S(=O)(=O)c2ccc(OC)c(OC)c2)cc1	-3.2	-1.8	0.71	-3	x	11	4
COCCNC(=O)c1cccc(OC2CCN(Cc3ccc(C(C)C)cc3)CC2)c1	-2.4	1.7	0.71	-1	i	2.6	-10
O=C(c1ccc2noc(-c3ccccc3)c2c1)N1CCN(c2ccccc2)CC1	3.3	8.2	0.71	x	i	x	0
C=CCNC(=S)Nc1ccc(C)cc1[N+](=O)[O-]	2.6	4.8	0.7	-2	i	-3.3	16
O=C(CCn1c(=O)oc2ccccc21)Nc1nc2ccccc2s1	-2.2	4.0	0.76	4	i	-3.9	1
Cc1cc2cc(C(=O)N3CCc4c([nH]c5ccccc45)C3c3ccccn3)ccc2o1 (stereo unspecified)	-3.3	4.5	0.73	x	i	-5.4	8
CC(C)NC(=O)CSc1ccccc1C(=O)N1CCN(S(=O)(=O)/C=C/c2ccccc2)CC1	-0.1	-1.2	0.65	0	i	17*	3
Cc1ccc(S(=O)(=O)N(C)C)cc1NC(=O)c1n[nH]c(=O)c2ccccc12	-3.0	2.6	0.67	x	i	-4.0	5
CCC1CCCCN1c1nc(-c2ccncc2)nc2ccccc12 (stereo unspecified)	0.0	-2.2	0.67	29	x	-0.3	5
Nn1c(SCC(=O)Nc2nccs2)nnc1-c1ccco1	0.1	-0.8	0.68	x	x	x	-6
O=C(CSc1nc(-c2cccs2)cc(C(F)(F)F)n1)NCc1ccccc1	1.3	-16	0.67	-18	x	-0.7	-17
O=C(NCc1nnc(SCC(=O)N2CCN(c3ccccc3)CC2)o1)c1c(F)cccc1Cl	-2.0	4.2	0.78	25	i	0.4	2
C=CCOc1ccccc1CNCCCN1CCOCC1	2.4	0.9	0.7	-6	x	6.1	1
CCOc1ccccc1NC(=O)c1cc(S(=O)(=O)N2CCN(CC)CC2)ccc1Cl	3.0	0.0	0.69	1	i	1.3	-2
COc1cccc(OCC(O)CN2CCOCC2)c1 (stereo unspecified)	0.1	3.2	0.77	-2	x	0.6	-7
O=C(CSc1nnc(-c2cccs2)o1)N1CCCCC1	0.2	3.4	0.71	x	i	-2.2	-14
CSc1ncc(Cl)c(C(=O)C(C#N)c2nc3c(C)cc(C)cc3c(=O)[nH]2)n1 (stereo unspecified)	0.2	12	0.69	86*	i	0.9	2
COc1ccccc1NC(=O)C1=C(C)NC(=O)NC1c1ccc(C)cc1 (stereo unspecified)	1.4	3.1	0.67	37	i	1.1	-5
NC(=O)c1ccsc1NC(=O)C1CCN(S(=O)(=O)c2cccs2)CC1	0.3	-0.1	0.66	11	i	-1.6	13
Cc1cc(F)ccc1S(=O)(=O)N1CCCOC1CNC(=O)C(=O)NCC(C)C (stereo unspecified)	-1.4	3.6	0.69	-7	i	2.1	14
C=CCN1C(=O)/C(=c2\sc3nc(=O)c(Cc4ccccc4)nn3c2=O)c2ccccc21	-3.1	x	x	65	i	2.1	4
NC(=O)c1ccccc1OCC(=O)O	-1.1	-2.8	0.67	-1	x	2.2	3
FC(F)(F)c1ccc(C2[C@H]3CN(Cc4cccnc4)[C@H](c4ccccc4)C34CC2(c2cccnc2)C4)cc1 (stereo partly specified)	1.2	x	x	-7	i	2.9	7
CSc1nc(=O)n2cccc(C)c2n1	-1.8	6.4	0.69	-35	x	4.8	-4
CCN(CC)S(=O)(=O)c1cccc(NC(=O)CC2CCCC2)c1	5.7	3.6	0.7	x	i	0.3	-6
COc1ccc(S(=O)(=O)N2CCN(Cc3cc(OC)c(OC)c(OC)c3)CC2)cc1	-0.7	0.8	0.65	x	i	-2.9	-4
O=C(NNc1cc(N2CCOCC2)nc(N2CCOCC2)n1)c1ccc(Cl)cc1Cl	2.1	2.6	0.69	-3	x	1.5	-3
CCOC(=O)[C@H]1[C@H]2COc3ccc(C)cc3[C@@H]2N2C(=O)CN(Cc3ccc(F)cc3)C(=O)[C@@]12C	9.2	4.5	x	-14	i	3.3	-3
Cc1ccc(NC(=O)c2ccc(S(=O)(=O)NCC3CCCO3)cc2)cc1C (stereo unspecified)	-2.6	4.3	0.7	0	i	2.1	8
O=C(c1ccc(CS(=O)(=O)Cc2ccccc2)cc1)N1CCCCC1	-5.9	2.2	0.68	2	i	-1.2	13
CC(C)N(C(=O)COC(=O)CNS(=O)(=O)c1ccccc1F)c1ccccc1	-1.6	-1.1	0.62	-14	i	-5.3	5
Cc1cc(C)n(C(=O)/C(C#N)=C/N(C)C)n1	0.7	2.9	x	-10	i	-2.7	3
CNC(=O)c1ccsc1NC(=O)c1ccc(S(=O)(=O)N2CCOCC2)cc1	-0.2	2.7	0.66	58	x	-0.9	12
O=C(C(=O)N1CCN(c2ccccc2F)CC1)c1c[nH]c2ccccc12	3.4	6.6	0.73	-1	i	-1.5	0
Cc1ccc(NC(=O)Cn2nnc3ccccc3c2=O)cc1	0.7	-0.3	0.7	-13	i	2.3	-5
CSc1cnn(-c2ccccc2)c(=O)c1SC	0.4	3.0	0.64	1	x	1.6	1
Cc1cc(NC(=O)c2ccc(Cl)cc2Cl)n(CCC#N)n1	0.6	1.4	0.66	-3	i	-0.8	-2
CCOC(=O)C1=C(N)n2c(s/c(=C/c3ccco3)c2=O)=C(C(=O)OC)C1c1ccco1 (stereo unspecified)	3.5	x	x	28	x	-0.1	-8
CCCNC(=O)c1ccccc1NC(=O)CN(c1ccccc1OCC)S(C)(=O)=O	1.4	6.6	0.71	-19	x	-0.6	-1
CC(NC(=O)c1cc([N+](=O)[O-])cc([N+](=O)[O-])c1)c1ccc(-n2ccnc2)cc1 (stereo unspecified)	-3.7	3.1	0.74	-69	i	6.7	-1

Compounds listed so far that contain two or more sulfur atoms:
SMILES	HNF4A DNA FP	UCH37 inh	E coli growth	ALR inh	FGF22 binding	LANA-H2B inh	B2AR ag
CC(C)NC(=O)CSc1ccccc1C(=O)N1CCN(S(=O)(=O)/C=C/c2ccccc2)CC1	-0.1	-1.2	0.65	0	i	17*	3
Nn1c(SCC(=O)Nc2nccs2)nnc1-c1ccco1	0.1	-0.8	0.68	x	x	x	-6
O=C(CSc1nc(-c2cccs2)cc(C(F)(F)F)n1)NCc1ccccc1	1.3	-16	0.67	-18	x	-0.7	-17
O=C(CSc1nnc(-c2cccs2)o1)N1CCCCC1	0.2	3.4	0.71	x	i	-2.2	-14
NC(=O)c1ccsc1NC(=O)C1CCN(S(=O)(=O)c2cccs2)CC1	0.3	-0.1	0.66	11	i	-1.6	13
CNC(=O)c1ccsc1NC(=O)c1ccc(S(=O)(=O)N2CCOCC2)cc1	-0.2	2.7	0.66	58	x	-0.9	12
CSc1cnn(-c2ccccc2)c(=O)c1SC	0.4	3.0	0.64	1	x	1.6	1

A section from further up, for reference:
SMILES	HNF4A DNA FP	UCH37 inh	E coli growth	ALR inh	FGF22 binding	LANA-H2B inh	B2AR ag
C=CCN1C(=O)/C(=c2\sc3nc(=O)c(Cc4ccccc4)nn3c2=O)c2ccccc21	-3.1	x	x	65	i	2.1	4
NC(=O)c1ccccc1OCC(=O)O	-1.1	-2.8	0.67	-1	x	2.2	3

(further entries)
SMILES	HNF4A DNA FP	UCH37 inh	E coli growth	ALR inh	FGF22 binding	LANA-H2B inh	B2AR ag
COc1ccc(OC)c(Nc2ncnc3c2cnn3-c2ccccc2)c1	1.4	1.3	0.68	-12	x	3.1	1
COc1ccc(-c2ccc(NCCC3=CCCCC3)nn2)cc1OC	0.1	2.0	0.74	14	i	2.8	14
COc1c(C)cccc1C(=O)Nc1ccc(CN2CCOCC2)cc1	-1.1	3.3	0.67	-2	i	-6.4	2
CCN(CC)CCNC(=O)c1ccc(NC(=O)c2cc(-c3ccco3)nc3ccccc23)cc1	-3.0	-184	0.73	-2	i	4.4	13
CCCCn1c(N)c(N(CCOC)C(=O)c2c(C)noc2C)c(=O)[nH]c1=O	-2.9	-1.6	0.67	x	i	x	-2
Cc1[nH]c2ccccc2c1C(C[N+](=O)[O-])c1cccc(O)c1 (stereo unspecified)	0.8	3.0	0.7	98*	i	-0.1	-3
c1ccc(CN2C3=NCCN3c3ccccc32)cc1	5.3	2.4	0.69	96*	x	-7.0	-2
COC(=O)c1ccccc1N/C=C/C(=O)c1ccc(Br)cc1	3.2	x	x	-21	i	6.5	0
COc1cccc(OC)c1C(=O)Nc1ccccc1C(=O)N1CCCC1	-1.1	-0.7	0.68	-24	i	-21	3
Cc1ccccc1CSCCNC(=S)Nc1ccccc1	2.6	4.5	0.71	-9	i	-1.0	15
COc1c(N2CCN[C@H](C)C2)c(F)cc2c(=O)c(C(=O)O)cn(C3CC3)c12	x	-164	x	20	x	0.1	x
COc1ccc(S(=O)(=O)NCCCCCC(=O)O)cc1C(=O)O	-2.5	2.6	0.68	-17	i	-6.6	-11
CCOC(=O)CC1C(=O)NCCN1S(=O)(=O)c1ccc(Cl)cc1 (stereo unspecified)	-6.5	0.3	0.68	27	x	4.1	0
Oc1ccc(N=Nc2nc(-c3ccccc3)c(-c3ccccc3)[nH]2)cc1	30	9.8	0.67	14	i	4.7	-2
CC1CCN(C(=O)CNC(=O)Cn2ccc3ccccc3c2=O)CC1	-1.0	-5.4	0.7	-14	i	1.2	10
O=C(Nc1ccccc1-c1ccccc1)c1ccc(Cl)c([N+](=O)[O-])c1	-3.9	5.4	0.69	65	x	-2.9	28
Cc1ccc(OC(C)C(=O)Nc2ccccc2C(=O)N2CCN(C)CC2)cc1 (stereo unspecified)	-4.4	1.4	0.65	-4	i	3.8	-1
Cc1ccccc1N(CC(=O)NCc1ccc2c(c1)OCO2)C(=O)CCC(=O)Nc1ccccn1	-0.7	3.9	0.72	-7	x	-1.2	-1
CC(=O)CCc1ccc(Oc2nc(-c3cccnc3)nc3ccccc23)cc1	4.0	3.0	0.67	-4	i	1.2	0
CCOC(=O)Cc1csc(NC(=O)NC2(C(F)(F)F)Oc3cc(Cl)c(Cl)cc3O2)n1	-0.9	2.3	0.61	98*	x	5.0	3
COc1ccc(S(=O)(=O)N(C)C[C@@H]2Oc3c(NS(=O)(=O)c4cn(C)cn4)cccc3C(=O)N([C@@H](C)CO)C[C@@H]2C)cc1	1.9	2.5	0.71	-5	x	-0.3	-1
CCOCCCNC(=S)NCCNc1nc2c(C)cccc2cc1C#N	4.0	-64	0.65	4	x	-4.3	20
N#Cc1ccc(OCC(O)CN2CCN(c3ncc(C(F)(F)F)cc3Cl)CC2)cc1 (stereo unspecified)	2.1	-0.4	0.62	5	i	-2.3	-19
Cc1ccc(-n2c(-c3nn(C)c(C)c3Cl)n[nH]c2=S)cc1	-0.4	2.9	0.68	86*	x	-1.4	-1
CCc1cc(Cn2nc(-c3ccccc3)cc2C(=O)NCc2cccs2)on1	2.4	1.6	0.73	x	i	-2.2	-2
O=C(CSCc1ccccc1)Nc1ccc(F)c(F)c1	-1.7	1.9	0.63	-4	x	11	2
COc1ccc(NC(=O)c2noc3c2CCCCC3)cc1	1.8	-1.4	0.66	x	i	-7.5	-10
Cc1ccccc1OCCC(=O)OCC(=O)Nc1cc(S(=O)(=O)N2CCOCC2)ccc1Cl	-0.3	2.7	0.66	6	i	-2.8	3
CC(C)(C)c1ccc(Oc2coc3cc(OCC(=O)O)ccc3c2=O)cc1	-3.5	4.3	0.69	29	i	5.0	3
Cc1ccc(N(Cc2ccccc2)C(=O)c2ccc(Cl)c(S(=O)(=O)N3CCOCC3)c2)cc1	-4.0	1.0	0.72	x	i	x	17
Cc1cnc(C(=O)OCC(=O)Nc2ccc(Cl)cn2)cn1	1.2	-3.0	0.65	-10	i	-1.9	-2
CCCc1c(C)c2cccc(C)c2[nH]c1=O	0.6	-1.2	0.69	2	x	3.4	2
COc1ccc(Cc2nc3ccc(C(=O)N(C)C(C)c4nccs4)cc3o2)cc1 (stereo unspecified)	-6.8	3.4	0.68	-3	i	-10	-5
